Rango release inh – prevents RanGTP from dissociating the Rango-importin beta complex | O95149+P62826 | Biochemical FRET Rango-importin beta, RanGTP-induced dissociation | Potency, µM (highest dose often 46.1 µM), for the others: at the top dose activity change, negative = inhibition | actives 0.071% (n = 340,000); active means falling FRET ratio curve, often poorly fitted, with flat reads before Ran was added; inconclusive means other falling curves, or compound fluorescence or quenching; inactive means flat or rising ratio curve;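 note: potency is the fitted concentration of half-maximal effect; % of control where 0% means no effect; nearly all actives have a fitted effect of over 45% in size; -100% = wells without RanGTP and RCC1; the record marks most hits as doubtful in a second field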
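Rango FRET biosensor (snurportin-1 IBB flanked by N-terminal EYFP and C-terminal CFP10) at 0.1 uM, with 0.25 uM importin beta in PBS, 1mM DTT, 0.02% Tween-20, 0.1% BSA. 0.6 uM Ran, 2mM GTP and 0.2 uM RCC1 were then added for 45 min at room temperature. Inhibition read as loss of FRET rise.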
GLA inh pH 4.5 – inhibitors of human alpha-galactosidase A at pH 4.5 | P06280 | purified enzyme, 4-MU-alpha-Gal fluorescence, pH 4.5 | activity change, negative = inhibition, % at 105 µM | 230,000 tested, under 10 active | AID 1467; inconclusive = small, poorly fitted or top-dose-only inhibition, or a rising curve; inactive = flat fitted curve, though single readings scatter; no compound was filed as active;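 note: 0% = full activity with enzyme and -100% = basal without enzyme; dose as in the result columns while the protocol names 77 µM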
Rango complex inh – inhibitors of Rango-importin beta complex formation; Rango CFP/YFP FRET sensor + importin beta, 45 min; actives 0.031% (n = 340,000); Q14974; Potency, µM (titrated, usually from 92.2 µM), inactives show at the top dose inhibition of complex formation; active = rising FRET ratio curve, often small or poorly fitted; inconclusive = mostly compound fluorescence or quenching in the first reads; inactive = flat curves in all reads;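 note: potency is the fitted concentration of half-maximal effect; 0% = DMSO wells and 100% = buffer wells lacking importin beta; nearly all actives have a fitted effect of over 15% in size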
Target sequence (Q14974 whole entry, looked up): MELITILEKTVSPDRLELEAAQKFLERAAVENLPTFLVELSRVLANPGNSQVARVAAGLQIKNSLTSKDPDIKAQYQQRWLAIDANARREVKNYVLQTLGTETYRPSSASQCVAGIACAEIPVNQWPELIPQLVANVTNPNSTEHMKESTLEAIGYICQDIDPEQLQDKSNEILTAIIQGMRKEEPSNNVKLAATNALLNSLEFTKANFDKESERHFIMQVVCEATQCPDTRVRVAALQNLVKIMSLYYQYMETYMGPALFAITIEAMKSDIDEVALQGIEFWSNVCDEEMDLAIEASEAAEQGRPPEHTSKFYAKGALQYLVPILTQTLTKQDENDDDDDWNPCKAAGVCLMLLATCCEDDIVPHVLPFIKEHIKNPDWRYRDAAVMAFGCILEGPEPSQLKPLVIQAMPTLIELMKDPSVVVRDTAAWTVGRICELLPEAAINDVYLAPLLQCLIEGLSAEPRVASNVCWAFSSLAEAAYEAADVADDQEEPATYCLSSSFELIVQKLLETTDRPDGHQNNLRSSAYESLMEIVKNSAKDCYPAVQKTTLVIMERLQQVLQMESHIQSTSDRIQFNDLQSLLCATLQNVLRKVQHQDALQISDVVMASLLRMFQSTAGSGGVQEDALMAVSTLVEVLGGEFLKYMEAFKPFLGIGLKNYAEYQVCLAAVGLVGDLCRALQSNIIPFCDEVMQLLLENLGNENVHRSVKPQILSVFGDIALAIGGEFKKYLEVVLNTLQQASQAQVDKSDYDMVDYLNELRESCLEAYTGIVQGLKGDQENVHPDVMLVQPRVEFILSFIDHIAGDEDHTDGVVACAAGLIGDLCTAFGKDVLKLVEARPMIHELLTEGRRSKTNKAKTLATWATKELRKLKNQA
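FRET biosensor (snurportin 1 IBB flanked by EYFP and cerulean), 50 nM, with compound 5 min, then 0.125 microM importin beta in PBS, 1 mM DTT, 0.02% Tween-20, 0.1% BSA. CFP/YFP ratio read after 45 min at room temperature; pre-read flags interference.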
miR-21 reporter – raises the signal of a miR-21 reporter; HeLa miR-21 FLuc reporter, luciferase, 48 h; Potency, µM (titrated, usually from 38.3 µM), without a hit: at the highest dose reporter change, positive = more light; 340,000 tested, under 10 active; active = well fitted rising curve with a large enough effect; inconclusive = small, poorly fitted or top-dose-only effect; inactive = no such curve, though single readings can be large or run the other way;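 note: % of control where 0% means no effect; miR-21 action dims this reporter so a rising signal means less miR-21 action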
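Compounds were titrated across several concentrations (up to approximately 40 uM) and incubated 48 hours with HeLa miR-21-FLuc reporter cells (miR-21 target sequence downstream of FLuc, endogenous miR-21). Readout was firefly luciferase luminescence after lytic detection reagent.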
* marks the source's active call; other numbers are inactive results; ? = inconclusive; nt = not tested or not shown.

GLA inh pH 4.5,Rango release inh,Rango complex inh,miR-21 reporter,canonical_smiles
nt,10%,1.4%,-5%,O=[N+]([O-])c1ccc2c(c1)ncn2CCc1ccccc1
-5,-14%,-0.7%,-29%,CCOC(=O)Nc1nnc(-c2cccc(OC)c2)s1
1,-7%,-1.2%,-10%,Cc1ccc(S(=O)(=O)CCc2nc3ccccc3s2)cc1
nt,-7%,1.2%,0%,C[C@H](O)c1[nH]c2cc(F)ccc2c1[C@H](C)O
0,-3%,-0.2%,-13%,COc1ccc(CN2C(=O)CN=C2Nc2ccc(C)cc2C)cc1
nt,-6%,2.3%,nt,O=C(c1sccc1-c1ccccc1)N1CCN(S(=O)(=O)c2ccccc2F)CC1
3,?,2.1%,-5%,Cn1c(CNC(=O)c2ccccc2F)nnc1SCCOc1ccccc1
-3,1%,1.7%,0%,COc1ccc(-n2nc(N)c3c(=O)oc(N(C)C)nc32)cc1
nt,0%,-0.8%,nt,O=C(O)c1cc(S(=O)(=O)Nc2ccc3cn[nH]c3c2)ccc1Cl
nt,12%,-4.4%,nt,Cc1ccc(S(=O)(=O)N2CCC[C@H]2C(=O)OCCN2C(=O)c3ccccc3C2=O)cc1
5,12%,-1.2%,-5%,COc1ccc(C(C)=O)cc1COC(=O)Cn1cnc2ccccc2c1=O
0,?,?,5%,CCn1nc(NC(=O)c2cccs2)c2cc3ccccc3nc21
-4,19%,?,-3%,COc1ccc(C(=O)NN(C)c2nc(-c3ccccc3)cc(C)c2S(C)(=O)=O)cc1
-2,1%,-2.2%,-2%,NS(=O)(=O)c1ccc(CCNC(=O)CSc2cccs2)cc1
5,1%,-0.4%,-35%,S=c1[nH]nc(-c2ccc3ncccc3c2)n1-c1ccc2c(c1)OCCO2
3,4%,-0.3%,-4%,CC(Sc1nnc(C(C)N(C)C)n1-c1ccc(Cl)cc1)C(=O)Nc1ccc2c(c1)OCO2 (centres undefined)
nt,-9%,-0.5%,nt,CC1Nc2ncnc(N3CCN(c4ccccn4)CC3)c2N(Cc2ccccc2)C1=O (centres undefined)
5,4%,?,-21%,Cc1ccccc1-c1n[nH]c(=S)n1/N=C/c1c(C)nn(-c2ccccc2)c1C
nt,1%,2.4%,nt,COc1cc(OC)cc(-c2c(-c3cccs3)c3cc(-c4ccc5c(c4)OCO5)ccc3n2C)c1
nt,1%,-2.5%,?,COc1c(C)cccc1C(=O)Nc1ccc(N2CCN(C(=O)c3ccccc3C)CC2)cc1
nt,3%,-1.7%,7%,CCOc1ccc(/C=N/NC(=O)CN2CCCCC2)cc1OCC
-23,-16%,-1.4%,-36%,O=C(Nc1cccc(Cl)c1)c1csc(-c2ccccc2)n1
nt,-10%,-0.8%,-1%,C=CCN1C(=O)C2(OCCCO2)c2c(C)ccc(C)c21
3,24%,1.9%,0%,CCC(C)NC(=O)C1CN(S(=O)(=O)c2ccccc2)CCN1S(=O)(=O)c1ccccc1 (centres undefined)

Look-ups from the results shown.
In Rango release inh, COc1ccc(CN2C(=O)CN=C2Nc2ccc(C)cc2C)cc1 has the entry -3%
In GLA inh pH 4.5, COc1ccc(C(=O)NN(C)c2nc(-c3ccccc3)cc(C)c2S(C)(=O)=O)cc1 has the entry -4
In miR-21 reporter, O=C(Nc1cccc(Cl)c1)c1csc(-c2ccccc2)n1 has the entry -36%

Next records follow.
GLA inh pH 4.5,Rango release inh,Rango complex inh,miR-21 reporter,canonical_smiles
-16,2%,-4.2%,-12%,Cc1c(C(=O)N2CCC(C)CC2)sc2ncnc(N(C)c3ccccc3)c12
nt,-15%,?,1%,O=C(O)C(Oc1ccc2cc(-c3ccc(Cl)cc3)c(=O)oc2c1)c1ccccc1 (centres undefined)
nt,-1%,-2.3%,-1%,CC1CCCC(C)N1CCCNC(=O)c1ccc2c(c1)NC(=O)c1ccccc1S2 (centres undefined)
-7,2%,2.4%,-34%,COc1ccc(-c2nc3ccncc3[nH]2)cc1OC
-2,-8%,-3.6%,-7%,CC1Cc2ccccc2N1C(=O)c1ccnc(C(C)(C)C)c1 (centres undefined)
-3,-3%,0.1%,0%,CCCN(CCC)CCCNC(=O)C1c2cc(OC)c(OC)cc2C(=O)N(C)C1c1cccnc1 (centres undefined)
nt,-13%,?,-4%,COc1ccc(NC(=O)/C(=C\c2ccco2)NC(=O)c2ccco2)cc1
nt,22%,0.4%,nt,COc1ccc(NC(=O)c2cc(C3CC3)nc3c2cnn3C(C)C)cc1OC
nt,-10%,-0.2%,nt,c1ccc2c(c1)[nH]c1ccncc12
8,1%,-0.7%,-8%,Cc1ccc(N2CC(C(=O)Nc3ccccn3)CC2=O)cc1 (centres undefined)
2,-5%,-0.2%,-2%,Cc1cc(-c2ccco2)n(CC(=O)NCc2ccco2)n1
nt,-3%,0.1%,9%,CCOc1ccc(CN2CCCC(N3CCN(c4ccc(OC)cc4)CC3)C2)cc1 (centres undefined)
nt,11%,2.9%,nt,CCCCSc1ncnc2c1ncn2C1CCCCO1 (centres undefined)
nt,-1%,-1.1%,0%,CCc1cccc(NC(=O)CCNS(=O)(=O)c2ccc3c(c2)oc(=O)n3C)c1
nt,-4%,-1.0%,0%,COc1ccc(CCN2CC(C(=O)N(C)Cc3c(C)n[nH]c3C)CCC2=O)cc1 (centres undefined)
-20,1%,-0.5%,-3%,COCCN=C1Sc2nc3c(C)cccc3cc2CN1Cc1ccco1
nt,1%,0.2%,-6%,Cc1ccc2c(c1)N(CC(=O)NC1CCCCC1)C(=O)c1cccnc1O2
nt,-18%,2.6%,nt,O=C(N[C@@H]1C/C=C\C[C@H](CC(=O)N(CCO)Cc2ccccc2)C(=O)N[C@@H](Cc2ccccc2)COC1=O)OCC1c2ccccc2-c2ccccc21
nt,8%,-1.5%,-2%,O=C(CCC(=O)Nc1cccc([N+](=O)[O-])c1)NCc1ccccc1
nt,1%,0.8%,-48%,COc1cccc2cc(C(=O)Nc3ccccc3C)/c(=N/O)oc12
nt,-8%,0.7%,nt,NCCN1CCN2C(=O)CN(C(=O)c3ccccc3)CC12 (centres undefined)
-4,5%,0.4%,?,CCN1C(=O)C(CC(=O)Nc2ccc(F)cc2)N(CCCN2CCN(c3ccc(F)cc3)CC2)C1=S (centres undefined)
-16,-13%,0.7%,-10%,Cn1c(=NC(=O)COc2ccccc2)sc2cc(F)cc(F)c21
4,21%,-4.1%,0%,Cc1cnc(C(=O)OCC(=O)N(Cc2ccccc2)C(C)C)cn1
11,1%,-0.1%,-1%,Cc1nnc(SCC(=O)Nc2c(C)n(C)n(-c3ccccc3)c2=O)n1Cc1ccccc1
nt,-8%,1.6%,-6%,O=C(COc1ccc2ccccc2c1)NNC(=O)Nc1ccccc1F
-13,12%,-2.4%,-1%,OCC1(Cc2ccc(Cl)cc2)CCN(Cc2ccccc2F)CC1
6,-2%,0.5%,0%,COc1ccc(C(=O)NC(C(=O)NCc2ccccn2)C(C)C)cc1 (centres undefined)
-6,-9%,0.0%,-1%,CCCCCCSc1nc(O)c(C2OC(=O)c3c2ccc(OC)c3OC)c(=O)n1-c1ccccc1 (centres undefined)
-26,2%,-2.0%,-5%,O=C(COc1ccc(Cl)cc1)N(Cc1ccccc1)c1ccccn1
nt,?,?,0%,Cc1ccc(C(CC(=O)O)NC(=O)CN2C(=O)c3ccccc3C2=O)cc1 (centres undefined)
6,17%,17%,nt,Cc1cc(/C=C\c2ccc3cc(N(C)C)ccc3[n+]2C)c(C)n1-c1ccccc1
-2,-3%,-0.6%,-11%,COc1ccc(CNC(=O)c2ccccc2C(=O)O)cc1
nt,11%,-3.5%,nt,COc1ccc(OC)c(NC(=O)c2ccccc2OC(C)=O)c1
nt,-14%,1.5%,-11%,O=C(NCCc1ccc(C(F)(F)F)cc1)C1CCC(=O)N(CCc2cccc(F)c2)C1 (centres undefined)
2,4%,3.0%,2%,CCN(CC)S(=O)(=O)c1cccc(NC(=O)COc2ncnc3sccc23)c1

The closing 6 entries of the section above open the next one.
GLA inh pH 4.5,Rango release inh,Rango complex inh,miR-21 reporter,canonical_smiles
nt,?,?,0%,Cc1ccc(C(CC(=O)O)NC(=O)CN2C(=O)c3ccccc3C2=O)cc1 (centres undefined)
6,17%,17%,nt,Cc1cc(/C=C\c2ccc3cc(N(C)C)ccc3[n+]2C)c(C)n1-c1ccccc1
-2,-3%,-0.6%,-11%,COc1ccc(CNC(=O)c2ccccc2C(=O)O)cc1
nt,11%,-3.5%,nt,COc1ccc(OC)c(NC(=O)c2ccccc2OC(C)=O)c1
nt,-14%,1.5%,-11%,O=C(NCCc1ccc(C(F)(F)F)cc1)C1CCC(=O)N(CCc2cccc(F)c2)C1 (centres undefined)
2,4%,3.0%,2%,CCN(CC)S(=O)(=O)c1cccc(NC(=O)COc2ncnc3sccc23)c1
3,-3%,-3.8%,-2%,O=C(COC(=O)CCS(=O)(=O)c1ccc(Cl)cc1)NCCc1ccccc1
1,-8%,-0.5%,-7%,Cc1ccc(OCc2nn3c(-c4ccco4)nnc3s2)cc1
nt,6%,0.1%,-1%,CCOC(=O)Cn1nc(-c2ccccc2)c(-c2ccccc2)nc1=O
nt,-16%,-0.1%,-5%,O=C1CCCN1CCCNCC(O)c1ccccc1 (centres undefined)
7,?,?,0%,CN1CC=C2C(C#N)=C(N)C(C#N)(C#N)C(c3cccc(Cl)c3Cl)C2C1 (centres undefined)
1,5%,2.2%,-6%,O=C(NC1CCCc2ccccc21)C1CCCO1 (centres undefined)
-1,?,?,-5%,O=C(NCc1ccccc1)C1=C[C@H](c2ccc3c(c2)OCO3)C[C@H](OCCCCO)O1
-4,9%,-1.1%,-2%,CCCNc1nc2c(c(=O)[nH]c(=O)n2C)n1CCCc1ccccc1
nt,-4%,5.6%,7%,CC(CS(=O)(=O)c1ccc2c(c1)NC(=O)CS2)C(=O)N1CCN(c2cccc(Cl)c2)CC1 (centres undefined)
3,12%,4.2%,1%,OCC1(CO)COC(c2ccccc2)=N1
-3,4%,2.6%,12%,CC1CN(CCOc2ccc([N+](=O)[O-])cc2)CC(C)O1 (centres undefined)
-4,11%,0.6%,9%,C=CCN1C(=O)C(CC(=O)Nc2ccc(OC)cc2)SC1=Nc1ccc(S(N)(=O)=O)cc1 (centres undefined)

Ordered by value in miR-21 reporter (ascending): three from the list above
mol | GLA inh pH 4.5 | Rango release inh | Rango complex inh | miR-21 reporter
O=C1CCCN1CCCNCC(O)c1ccccc1 (centres undefined) | nt | -16% | -0.1% | -5%
CCCNc1nc2c(c(=O)[nH]c(=O)n2C)n1CCCc1ccccc1 | -4 | 9% | -1.1% | -2%
CN1CC=C2C(C#N)=C(N)C(C#N)(C#N)C(c3cccc(Cl)c3Cl)C2C1 (centres undefined) | 7 | ? | ? | 0%

Next section
GLA inh pH 4.5,Rango release inh,Rango complex inh,miR-21 reporter,canonical_smiles
-15,-8%,0.5%,?,COc1cc(CNC(C)(C)CO)cc(Br)c1OCc1ccc(Cl)cc1
nt,17%,4.5%,nt,COc1cc(CC(=O)OCC(=O)N(C)C2CCCCC2)cc(OC)c1OC
nt,-1%,0.7%,-2%,COc1ccc(NC2CCCN(C(=O)c3oc(C)cc3C)C2)cc1OC (centres undefined)
2,0%,2.9%,-4%,COCCCN1C(=O)C(=O)/C(=C(/O)c2ccc3c(c2)OCCO3)C1c1ccc(C(=O)OC)cc1 (centres undefined)
nt,-17%,0.8%,nt,CC1=CC(c2ccccc2)n2ncnc2N1 (centres undefined)
nt,9%,-1.3%,-8%,CNC(=S)N(CCc1c(C)[nH]c2ccccc12)Cc1cccnc1
-3,6%,1.6%,0%,CCCc1nnc(SCC(=O)N2CCCC2)n1Cc1ccco1
9,-1%,-3.0%,8%,CC(C)CCC1CC(CSC(=N)N)OC1=O (centres undefined)

Source: PubChem

Some of the compounds tested; count on the stated rates, not on these rows.
